# From PubChem BioAssay
# Cruzain Triton: cruzain (T. cruzi) inhibition with detergent; purified cruzain, Z-FR-AMC fluorescence, 0.01% Triton; Potency, µM, without a hit: max response, negative = inhibition, hits mostly inhibitors; 0.43% of 200,000 active; AID 1478; active means well fitted curve in the direction sought with a large enough effect; inconclusive means small, poorly fitted or top-dose-only effect, or another doubt; inactive means no such curve, though single readings can be large; an effect the other way counts as inactive or inconclusive;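 further: plate controls were neutral wells for no effect and buffer without enzyme for full effect; nearly all actives have a fitted effect of over 40% in size; top concentration of the series not given in the record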
# Target sequence (P25779 123-467 limits assumed): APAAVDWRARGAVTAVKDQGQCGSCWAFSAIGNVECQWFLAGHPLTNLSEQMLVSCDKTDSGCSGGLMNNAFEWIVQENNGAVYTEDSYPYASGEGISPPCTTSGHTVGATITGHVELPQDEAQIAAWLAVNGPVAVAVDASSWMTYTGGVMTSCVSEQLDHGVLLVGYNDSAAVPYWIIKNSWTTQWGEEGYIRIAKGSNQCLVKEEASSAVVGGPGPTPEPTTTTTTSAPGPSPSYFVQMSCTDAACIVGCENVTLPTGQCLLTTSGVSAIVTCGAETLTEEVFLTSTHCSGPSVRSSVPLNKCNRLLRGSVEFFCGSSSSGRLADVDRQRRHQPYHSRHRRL
#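 Cruzain (1.5 nM) preincubated 15 min at RT with compound in 100 mM sodium acetate pH 5.5, 5 mM DTT, 0.01% Triton X-100. Reaction started with 2 uM Z-FR-AMC; AMC fluorescence (ex 360/em 450 nm) change over 60 s gave rate.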
# NS1 inh: blocks influenza NS1 protein function. 0.4% of 270,000 active. Potency, µM (series often up to 46.1 µM), inactives show at the highest dose activity, positive = more growth. S. cerevisiae slowed by influenza A NS1, growth recovery by OD600. AID 2326; further: actives are rising curves; nearly all actives have a fitted effect of over 50% in size
#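 OD600 was taken as the measure of yeast growth restored by compound in an NS1-expressing S. cerevisiae strain. Cells had been washed out of glucose medium and diluted 1:100 into galactose -URA medium, pH 6.0.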
# Lassa entry inh: inhibitors of Lassa virus binding or cell entry | Lassa virus pseudotype entry inhibition, cell reporter; control for the full effect not named in the record | Potency, µM (doses to about 37.9 µM), for inactives: at the top dose activity change, negative = inhibition, hits mostly inhibitors | 1.2% of 300,000 active; active means well fitted inhibition curve with a large enough effect; inconclusive means small, poorly fitted or top-dose-only effect, or effect the other way; inactive means flat fitted curve, though single readings scatter; tested in HEK293 cells; further: on the % scale 0 is the no-effect control and ±100 the full control effect; nearly all actives have a fitted effect of over 50% in size; luciferase read-out
# SARS PLP yeast: SARS-CoV PLP inhibition in yeast | S. cerevisiae expressing SARS-CoV PLpro, growth rescue; control for the full effect not named in the record | Potency, µM (doses to about 32.9 µM), for the others: top-dose activity, positive = growth rescue | 0.19% of 330,000 active | AID 485353; further: 0% is about no effect; nearly all actives have a fitted effect of over 55% in size; growth read by luminescence after 48 h
# MARV entry inh: Marburg virus entry inhibition. Marburg virus pseudotyped entry inhibition, cell reporter; control for the full effect not named in the record; about a third of the inactives were read at about 46 µM. Potency, µM (highest dose often 37.8 µM), for inactives: at the highest dose activity change, negative = inhibition, usual class: inhibitors. 1.8% of 300,000 active. AID 540276; active = well fitted inhibition curve with a large enough effect; inconclusive = small, poorly fitted or top-dose-only effect, or effect the other way; inactive = flat fitted curve, though single readings scatter; tested in HEK293 cells; about a fifth of its hits are not listed in these tables; further: on the % scale 0 is the no-effect control and ±100 the full control effect; luciferase read-out
# RE007 growth inh: less growth of the S. pombe RE007 Vpr strain | S. pombe RE007 Vpr strain, BacTiter-Glo ATP luminescence, 24 h; control for the full effect not named in the record | Potency, µM (highest dose often 92.2 µM), inactives show top-dose activity change, negative = less growth | 0.21% of 360,000 active | AID 651644; active = well fitted falling curve with a large enough effect; inconclusive = small, poorly fitted or top-dose-only effect; inactive = no such curve, though single readings can be large or run the other way;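 further: on the % scale 0 is the no-effect control and ±100 the full control effect; nearly all actives have a fitted effect of over 50% in size; the assay follows cell death caused by Vpr and the record does not say whether a fall means rescue or toxicity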
#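 Fission yeast strain RE007, carrying one chromosomally integrated HIV-1 vpr copy, was seeded at OD 0.01 in PMG+AL medium with 23 nL pinned compound. After 24 h at 30 °C and 99% humidity, viability was read by BacTiter-Glo luminescence.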
# StopGo reporter: lowers the luciferase signal of an FMDV 2A StopGo reporter; human cells with a luciferase reporter of 2A StopGo recoding; control for the full effect not named in the record; Potency, µM (top dose mostly 57.9 µM), without a hit: at the top dose signal change, negative = less light; 1.2% of 410,000 active; active = well fitted falling curve with a large enough effect; inconclusive = small, poorly fitted or top-dose-only effect; inactive = no such curve, though single readings can be large or run the other way; tested in HEK293T cells; further: on the % scale 0 is the no-effect control and ±100 the full control effect; nearly all actives have a fitted effect of over 45% in size; luciferase light after 4 h
# Cruzain inh noDet: cruzain (T. cruzi) inhibition without detergent | P25779 | purified cruzain, Z-FR-AMC fluorescence, no detergent | Potency, µM, for inactives: max response, negative = inhibition, hits mostly inhibitors | 2.3% of 200,000 active | AID 1476; active means well fitted curve in the direction sought with a large enough effect; inconclusive means small, poorly fitted or top-dose-only effect, or another doubt; inactive means no such curve, though single readings can be large; an effect the other way counts as inactive or inconclusive;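 further: plate controls were enzyme without inhibitor for no effect and buffer without enzyme for full effect; nearly all actives have a fitted effect of over 40% in size; top concentration of the series not given in the record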
#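 Purified cruzain at 1.5 nM, pre-incubated 15 min with compound at room temperature in 100 mM sodium acetate pH 5.5, 5 mM DTT, 0.00005% Triton X-100. Reaction started with 2 uM Z-FR-AMC; AMC fluorescence increase over 60 s gives rate.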
# Active calls of the source: *; ? = inconclusive; · = no result given; & = joins results of further samples; [ ] = remark or other dose. Unless noted, the call rests on the fitted dose curve; in most records, active means well fitted rising curve with a large enough effect; inconclusive means small, poorly fitted or top-dose-only effect; inactive means no such curve, though single readings can be large or run the other way. Potency means the concentration at half of the fitted maximal effect.
SMILES,Cruzain Triton,NS1 inh,Lassa entry inh,SARS PLP yeast,MARV entry inh,RE007 growth inh,StopGo reporter,Cruzain inh noDet
COc1cccc(N2C(=O)NC(=O)/C(=C/c3ccc4c(c3)Cc3ccccc3-4)C2=O)c1,·,·,17%,2%,-15%,-26%,8%,·
COc1cccc(-n2nnnc2SCC(=O)Nc2cccc(C)n2)c1,-1.1%,-17%,17%,0%,-7%,3%,·,-9%
Cc1nc(N)sc1-c1nnc(SCC(=O)Nc2ccccc2C(F)(F)F)n1C,-1.5%,1%,-1%,0%,-8%,-27%,-15%,1%
C#CCOCCOCCOCCNc1nc(N2CCN(C(=O)[C@H](C(C)C)n3cc(CCO)nn3)CC2)nc(N2CCN(C(=O)[C@H](CCCCN)n3cc(CCCC)nn3)CC2)n1,-0.8%,5%,-6%,-12%,6%,0%,-1%,?
Cc1nc(N2CCN(c3ccccc3)CC2)[nH]c(=O)c1CCC(C)C,·,·,-20%,-1%,3%,13%,-5%,·
Cc1coc2c(C)c3oc(=O)c(CCC(=O)NCCN4CCOCC4)c(C)c3cc12,·,-8%,·,-11%,·,-2%,-14%,·
Cc1ccc(N2C(=O)C3NN=C(C(=O)OCc4ccccc4)C3C2=O)cc1 (stereo not drawn),-3.6%,-21%,-5%,-15%,11%,3%,2%,4%
CCCNC(=O)CCn1nc(-c2ccccc2)c2ccccc2c1=O,-3.1%,0%,-4%,-1%,-1%&3%[46.1 µM],5%,-5%&1%,6%
COc1ccc(-c2noc(-c3ccc(NC4CCCCC4)c([N+](=O)[O-])c3)n2)cc1OC,-4.0%,·,-8%[46.1 µM],·,13%[46.1 µM],·,0%,21%
c1ccc(CN2CCN(CCOCCOc3cccc4ccccc34)CC2)cc1,·,-7%,1%,0%,?,-3%,?,·
Cc1csc2ncc(C(=O)NC(C)c3ccccc3)c(=O)n12 (stereo not drawn),-12%,-22%,·,-7%,·,-4%,-29%,6%
COc1ccc(C2CC(c3ccc(C)cc3)=NN2C(=O)c2ccccc2)cc1 (stereo not drawn),·,-1%,·,-3%,·,-18%,-10%,·
O=C(c1cccc(Br)c1)c1conc1C(=O)c1ccco1,-5.5%,-26%,0%,-18%,-10%,7%,17%,-2%
CCC(=O)NCCCOc1ccccc1,6.0%,-4%,16%,-3%,-1%,-5%,·,0%
CCN(CC)CCOC(=O)c1ccc(NC(=O)c2cc3cc(OC)ccc3oc2=O)cc1,-0.4%,·,18%[46.1 µM],·,8%[46.1 µM],·,-1%,-5%
Cn1ccc(C(=O)N/N=C/c2ccccc2[N+](=O)[O-])n1,·,-2%,14%,0%,?,5%,46%[activator],·
CCOC(=O)c1ccc(NNC(C)=O)c([N+](=O)[O-])c1,·,2%,9%[46.1 µM],-1%,1%[46.1 µM],-8%,-5%,·
Cc1cccc(C)c1NC(=O)Cn1nc(-c2ccccc2)nc1-c1ccccc1,-2.7%,2%,-1%,1%,4%,7%,12%,1%
O=C(OCCN=C1NS(=O)(=O)c2ccccc21)c1cccnc1,-2.1%,?,-6%,10%,4%,8%,14%,3%
O=C(COc1ccc(F)cc1)N(Cc1cccc(Br)c1)C1CCS(=O)(=O)C1 (stereo not drawn),·,0%,-29%[46.1 µM],3%,0%[46.1 µM],7%,-6%,·
CCn1c(SCC(=O)Nc2cccc(O)c2)nc2c1c(=O)n(C)c(=O)n2C,·,11%,?,11%,1%[46.1 µM],20%,5%,·
COc1ccccc1N1CCN(C(=O)CSc2n[nH]c(-c3ccccc3Cl)n2)CC1,1.8%,·,-12%[46.1 µM],·,·,·,-21%,14%
CC1CCN(C(=O)/C=C/c2ccc(C(C)(C)C)cc2)CC1,-9.0%,-11%,?,-4%,9%,-5%,41%[activator],-6%
COc1ccccc1CNC(=O)c1c(-c2ccccc2)nn(-c2ccccc2)c1C,-1.4%,-4%,0%,3%,-13%[46.1 µM],0%,-3%,?
CCOC(=O)/C(=N\Nc1ccc(Cl)cc1)c1csc(Nc2ccccc2)n1,6.6%,3%,?,-5%,?,-7%,-13%,?

# New compounds follow:
SMILES,Cruzain Triton,NS1 inh,Lassa entry inh,SARS PLP yeast,MARV entry inh,RE007 growth inh,StopGo reporter,Cruzain inh noDet
Cc1nnc(SCC(=O)Nc2ccc(Cl)cn2)[nH]c1=O,-0.8%,-14%,-4%,5%,28%,3%,-6%,-4%
Cc1ccc(NC(=O)CC2Sc3ccccc3NC2=O)c(C)c1 (stereo not drawn),7.7%,·,-2%[46.1 µM],·,·,·,-10%,-28%
CN1C(=O)C(C)(C)c2cc(S(=O)(=O)NCc3ccc(C(=O)NCc4ccco4)cc3)ccc21,·,-1%,·,2%,·,2%,-4%,·
Brc1cccc(CNc2nc3ccccc3n2CCN2CCOCC2)c1,·,-6%,-3%,0%,·,-26%,-1%,·
CSc1ccccc1NC(=O)COC(=O)Cc1ccsc1,·,·,14%,-10%,-4%,3%,-6%,·
Cc1cc(C)cc(NC(=O)CCn2ccnc2)c1,·,-3%,4%,-1%,6%[46.1 µM],1%,-4%,·
CCCC(C(=O)Nc1ccc(S(=O)(=O)Nc2ncccn2)cc1)c1ccccc1 (stereo not drawn),·,4%,2%,1%,12%,0%,-7%,·
COc1ccc(Cn2c(N)c(C#N)c3nc4ccccc4nc32)cc1OC,-4.6%,19%,?,3%,4%&4%[46.1 µM],15%,-4%,-9%
COc1ccccc1Nc1nc(N)nc(CSc2nccc(C)n2)n1,-6.2%,-9%,-2%,4%,-3%,5%,-9%,-4%
COC(=O)c1cscc1S(=O)(=O)Cc1ccccc1,·,5%,·,3%,·,6%,1%,·
Cc1c(Cl)cccc1NC(=O)CN1C(=O)c2ccccc2Sc2ncccc21,-1.4%,·,-25%[46.1 µM],·,·,·,-22%,6%
CC(C)N1CC(COc2ccc(Br)cc2)OC1=O (stereo not drawn),·,4%,·,-2%,·,15%,-10%,·
CCN(CC)CCOC(=O)c1ccc(NC(=O)c2cc3cccc(OC)c3oc2=O)cc1,-0.2%,·,23%[46.1 µM],·,·,·,?,18%
CC(=O)N1c2ccc(S(=O)(=O)NCC3CCC(C(=O)Nc4cc(C)cc(C)c4)CC3)cc2CC1C (stereo not drawn),-4.5%,·,?,·,·,·,?,?
CCOc1ccccc1NC(=O)Cn1c(=O)n(-c2ccc(C)c(C)c2)c(=O)c2oc3ccccc3c21,-0.2%,·,?,·,·,·,-11%,-10%
Fc1ccc(-c2ccc(CNCc3ccccn3)o2)cc1,·,-1%,?,0%,-10%,-20%,52%[activator],·
COc1ccccc1NS(=O)(=O)c1ccc(Cl)cc1,-1.0%,-9%,16%,-6%,12%,0%,28%,-4%
Cc1nc(C(C)(C)O)n(-c2ccccc2)n1,2.2%,-5%,11%,2%,-5%[46.1 µM],12%,?,-3%
COc1cc(CC(=O)OCC(=O)Nc2cc([N+](=O)[O-])ccc2Cl)cc(OC)c1OC,-2.6%,-11%,-14%,11%,-4%,-7%,?,-7%
O=C(CN1CCCCCC1)Nc1ccccc1[N+](=O)[O-],·,-3%,·,1%,·,-10%,-8%,·
Cc1ccc(-c2c(C(=O)N/N=C/c3ccncc3)nnn2-c2nonc2N)cc1,·,6%,-11%[46.1 µM],0%,3%[46.1 µM],-4%,?,·
CNC(=O)C12CCC(C)(c3nc4cc(C)c(C)cc4nc31)C2(C)C (stereo not drawn),9.1%,-5%,0%,1%,-3%,-1%,3%,-3%
CCc1ccc(NC(=O)CN(N=Nc2nonc2C)c2nonc2C)cc1,·,-3%,-5%,2%,-6%,-1%,-22%,·

# A draw from above in order of count of non-hydrogen atoms, low to high.
SMILES,Cruzain Triton,NS1 inh,Lassa entry inh,SARS PLP yeast,MARV entry inh,RE007 growth inh,StopGo reporter,Cruzain inh noDet
Fc1ccc(-c2ccc(CNCc3ccccn3)o2)cc1,·,-1%,?,0%,-10%,-20%,52%[activator],·
Cc1csc2ncc(C(=O)NC(C)c3ccccc3)c(=O)n12 (stereo not drawn),-12%,-22%,·,-7%,·,-4%,-29%,6%
Cc1ccc(NC(=O)CC2Sc3ccccc3NC2=O)c(C)c1 (stereo not drawn),7.7%,·,-2%[46.1 µM],·,·,·,-10%,-28%
Cc1nc(N2CCN(c3ccccc3)CC2)[nH]c(=O)c1CCC(C)C,·,·,-20%,-1%,3%,13%,-5%,·
CCn1c(SCC(=O)Nc2cccc(O)c2)nc2c1c(=O)n(C)c(=O)n2C,·,11%,?,11%,1%[46.1 µM],20%,5%,·
Cc1nc(N)sc1-c1nnc(SCC(=O)Nc2ccccc2C(F)(F)F)n1C,-1.5%,1%,-1%,0%,-8%,-27%,-15%,1%
CCCC(C(=O)Nc1ccc(S(=O)(=O)Nc2ncccn2)cc1)c1ccccc1 (stereo not drawn),·,4%,2%,1%,12%,0%,-7%,·
COc1cc(CC(=O)OCC(=O)Nc2cc([N+](=O)[O-])ccc2Cl)cc(OC)c1OC,-2.6%,-11%,-14%,11%,-4%,-7%,?,-7%
CN1C(=O)C(C)(C)c2cc(S(=O)(=O)NCc3ccc(C(=O)NCc4ccco4)cc3)ccc21,·,-1%,·,2%,·,2%,-4%,·
CCOc1ccccc1NC(=O)Cn1c(=O)n(-c2ccc(C)c(C)c2)c(=O)c2oc3ccccc3c21,-0.2%,·,?,·,·,·,-11%,-10%
